# Vif A3G: inhibitors of Vif binding to APOBEC3G peptide, primary screen, biochemical, TR-FRET, GST-Vif 1-94, biotin-A3G peptide, dose response retest (AID 1117319) | TR-FRET GST-Vif / biotin-A3G peptide binding; higher % means a stronger effect; test concentration not given here; strong numbers were not always called active | inhibition, %; hits with a dose series show IC50 in µM | hit rate 0.57% among 260,000;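 active = above the screen mean plus three standard deviations and confirmed in dose response; inconclusive = results disagree or hit not tested in dose response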;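 also: Vif residues 1-94 fused to GST binding biotinylated APOBEC3G peptide 110-148; 0% = full assay without inhibitor and 100% = GST in place of GST-Vif; retest series ran down from 100 µM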
# FGF22 binding: binders of recombinant human FGF22 by thermal shift | SYPRO orange fluorescence; percent of sucrose octasulfate shift, DMSO zero | calls only at 9.99 µM | hit rate 1.5% among 340,000 | AID 651658;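 active = melting point raised past a set limit in the mean and every replicate; inconclusive = no clear call; three in four hits are not shown here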
# Target sequence (Q9HCT0 whole entry, looked up): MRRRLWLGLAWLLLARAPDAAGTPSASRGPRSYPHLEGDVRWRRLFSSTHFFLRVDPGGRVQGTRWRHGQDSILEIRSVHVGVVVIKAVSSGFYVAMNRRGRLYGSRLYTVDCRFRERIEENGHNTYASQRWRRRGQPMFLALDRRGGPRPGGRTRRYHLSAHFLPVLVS
# HNF4A DNA FP: change in binding of human HNF4 alpha to DNA; P41235; HNF4a-FITC DNA binding, fluorescence polarization, 1 h; activity change, % at 10 µM; hit rate 0.3% among 360,000; AID 1224865; in the data active = activity change above about 30%, passing the limit was not always enough;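 also: controls were the assay level and a saturating level of protein; the project sought stronger binding though the title names inhibitors; some compounds called inactive have numbers as strong as hits; positive values seem to mean higher polarization but the record does not say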
# Target sequence (P41235 whole entry, looked up): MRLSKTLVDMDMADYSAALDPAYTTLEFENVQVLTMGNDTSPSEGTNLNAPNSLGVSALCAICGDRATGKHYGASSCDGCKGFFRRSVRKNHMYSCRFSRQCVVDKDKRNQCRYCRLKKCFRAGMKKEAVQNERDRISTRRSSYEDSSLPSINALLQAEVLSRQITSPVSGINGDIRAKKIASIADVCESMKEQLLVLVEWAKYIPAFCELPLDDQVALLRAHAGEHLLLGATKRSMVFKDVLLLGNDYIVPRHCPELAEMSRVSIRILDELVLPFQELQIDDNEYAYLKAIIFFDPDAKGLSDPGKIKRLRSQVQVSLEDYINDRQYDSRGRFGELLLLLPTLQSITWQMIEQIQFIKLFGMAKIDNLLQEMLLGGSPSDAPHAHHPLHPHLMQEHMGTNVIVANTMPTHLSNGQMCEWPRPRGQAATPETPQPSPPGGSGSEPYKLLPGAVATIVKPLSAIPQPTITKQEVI
# UCH37 inh: blocks the human deubiquitinase UCH37; hit rate 0.33% among 330,000; purified proteasome/UCH37, Ub-AMC cleavage fluorescence; inhibition, % (test concentration not listed);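 active = mean of two replicates above 20%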;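 also: 0% = compound-free wells with enzyme and 100% = wells lacking proteasome; stock transfer was 100 nL into about 20 µL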
# Target sequence (Q9Y5K5 whole entry, looked up): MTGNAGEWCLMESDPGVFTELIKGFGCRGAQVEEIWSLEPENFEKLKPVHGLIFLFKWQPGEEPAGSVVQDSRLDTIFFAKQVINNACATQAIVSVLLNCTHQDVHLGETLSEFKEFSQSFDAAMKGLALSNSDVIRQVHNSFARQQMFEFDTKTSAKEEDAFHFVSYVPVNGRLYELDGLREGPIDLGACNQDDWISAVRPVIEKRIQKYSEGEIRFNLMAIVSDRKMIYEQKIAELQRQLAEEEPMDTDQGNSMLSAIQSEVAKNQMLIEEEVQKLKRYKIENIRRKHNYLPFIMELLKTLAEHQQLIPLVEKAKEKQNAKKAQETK
#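 Assay system: Proteasome-bound UCH37. Buffer or medium: pH 7.4 Tris-HCl (50 mM) with ovalbumin, ATP-MgCl2, DTT. Incubation: 30 min preincubation with enzyme, 25 min cleavage at room temperature. Measured by: fluorescence, ex 355 nm, em 460 nm. Read-out basis: percent inhibition. Control set: wells without proteasome as full block, compound-free enzyme plus substrate as uninhibited.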
# Ecoli growth: inhibitors of Escherichia coli growth. OD600 absorbance (test concentration not listed). OD600, 23 h; active compounds read low. hit rate 0.21% among 330,000;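 active = OD600 absorbance below the run mean of sample wells minus 3.6 SD, in any replicate, cut at about 0.56 in these data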;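 also: stock transfer was 300 nL into about 60 µL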
# RanGTP-Impb inh: disruptors of Ran-importin-beta complex formation – biochemical, FRET, CFP-Ran, YFP-importin-beta, homogeneous, primary screen; AID 2216; inhibition, % (concentration not given with the values); cell-free CFP-Ran/YFP-importin-beta FRET ratio; hit rate 1.1% among 300,000;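 active = most replicates above 15%; inconclusive = exactly half above 15%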;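 also: 0% = DMSO wells and 100% = Ran loaded with GDP instead of GTP; wells of about 40 µL received 100 nL stock; the first replicate is given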
# AF4-AF9 inh: blocks AF4 peptide binding to human AF9 | P42568 | AlphaScreen, biotin-AF4 peptide binding to FLAG-AF9 | inhibition, % at 10 µM | hit rate 0.47% among 350,000 | AID 651704;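 active = every replicate reaching a set inhibition limit, whatever the replicate mean, cut at about 25% in these data; inconclusive = mean inhibition reaches that limit but some replicates miss it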;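 also: 0% = plate neutral control median and 100% = total signal loss; the record names both 10 and 1 µM as test concentration; the first replicate is given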
# The depositor's hits bear a star; i = inactive; ? = inconclusive; nt = no result given; + = active, no number; & = joins results of further samples. These rows are one share of the data (hit frequency here may not be typical).
SMILES,Vif A3G,FGF22 binding,HNF4A DNA FP,UCH37 inh,Ecoli growth,RanGTP-Impb inh,AF4-AF9 inh
Cc1cccc(Cn2c(N3CCN(C)CC3)nc3c2c(=O)[nH]c(=O)n3C)c1,nt,i,-1.1,4.1,0.67,6.0,0.5
C/C(CC(=O)Nc1ccc(N(C)C)cc1)=N\NC(=O)C(=O)NCc1ccccc1,-6%,i,-0.1,nt,nt,-2.3,5.2
O=C(CCSc1ccc(Cl)cc1)NC1CCCCC1,2%,nt,5.3,6.4,0.71,?,nt
COC1CCC2(C)C(=CCC3C4CC(O)CC4(C)CCC32)C1 (stereo unspecified),-2%,i,2.1,0.6,0.71,nt,1.9
OCC1(Cc2ccccc2C(F)(F)F)CCN(Cc2ccncc2)CC1,0%,i,2.6,-0.6,0.68,-1.5,5.9
COc1cc(CN2CCNC(=O)C2CC(=O)NC2CCCC2)cc(OC)c1 (stereo unspecified),nt,i,1.4,0.4,0.72,7.7,2.9
Cc1ccc(OCCNC(=O)c2ccc(C)cc2)cc1,0%,i,4.5,4.7,0.65,-1.9,-9.0
Cc1ccc(/C=N\Nc2cn[nH]c(=O)c2Cl)cc1,-1%,nt,-1.1,nt,nt,4.5,nt
Cc1cc(C)n(C(=O)CCCCCC(=O)n2nc(C)cc2C)n1,13%,nt,0.8,0.4,0.71,?,nt
Cc1c(C(=O)NN2CCN(C)CC2)cccc1[N+](=O)[O-],-3%,nt,-5.6,0.6,0.68,-0.7,nt
COCC(C)NC(=O)c1ccc(N(C)C)cc1 (stereo unspecified),23%,nt,1.8,1.3,0.68,0.0,nt
CN1C(=O)c2ccccc2OC1(C)Cc1ccccc1 (stereo unspecified),-6%,i,-1.5,1.4,0.65,-1.9,6.5
Cc1ccc(C)c(S(=O)(=O)NC(C)C(=O)NCc2ccccn2)c1 (stereo unspecified),17%,i,-7.1,nt,nt,?,-1.9
CN(C)S(=O)(=O)Oc1ccsc1C(=O)Nc1ccc(Cl)c(Cl)c1,?,nt,1.0,1.1,0.72,-1.4,nt
CC(C)(C)c1cc(CCC(=O)Nc2ccncc2)cc(C(C)(C)C)c1O,-1%,+,0.3,4.7,0.73,0.7,4.5
Cc1ccc(CN(C(=O)c2c(F)cccc2F)C2CC(C)(C)NC(C)(C)C2)o1,-3%,nt,1.9,-2.6,0.7,2.1,nt
COCCNC(=O)c1ccc2c(=O)n(Cc3ccco3)c(SCC(=O)NC3CCCC3)nc2c1,3%,nt,1.8,4.6,0.68,-5.0,nt
Cc1ccc2cccc(OC(=O)/C=C\c3ccccc3)c2n1,-7%,nt,2.0,0.9,0.72,2.4,7.3
Cc1ccc(S(N)(=O)=O)cc1NC(=O)C(c1ccccc1)c1ccccc1,-5%,i,0.8,3.5,0.69,0.9,-1.1
CC1(C)CC2CC(C)(CN2C(=O)c2cccs2)C1 (stereo unspecified),-2%,nt,4.1,4.5,0.74,-1.1,nt
CC(C)OC(=O)C1C(=O)CC(C)(O)C(C(=O)OC(C)C)C1c1cccnc1 (stereo unspecified),-2%,nt,0.8,3.9,0.67,1.1,nt
COc1ccc(NC(=S)NCc2cccn2C)cc1,2%,i,5.5,5.4,0.69,0.3,2.4
CCOc1ccccc1C(=O)NCC(=O)OCC(=O)NCCc1ccc(S(N)(=O)=O)cc1,76µM*,nt,-2.2,2.6,0.72,-4.3,nt
COC(=O)c1ccc(C(c2c(N)n(CC(C)C)c(=O)[nH]c2=O)N2CCN(c3ccccc3)CC2)cc1 (stereo unspecified),-5%,nt,2.9,6.1,0.73,?,nt

# No new results follow: an excerpt of the list.
SMILES,Vif A3G,FGF22 binding,HNF4A DNA FP,UCH37 inh,Ecoli growth,RanGTP-Impb inh,AF4-AF9 inh
C/C(CC(=O)Nc1ccc(N(C)C)cc1)=N\NC(=O)C(=O)NCc1ccccc1,-6%,i,-0.1,nt,nt,-2.3,5.2
O=C(CCSc1ccc(Cl)cc1)NC1CCCCC1,2%,nt,5.3,6.4,0.71,?,nt
COC1CCC2(C)C(=CCC3C4CC(O)CC4(C)CCC32)C1 (stereo unspecified),-2%,i,2.1,0.6,0.71,nt,1.9

# Additional entries follow:
SMILES,Vif A3G,FGF22 binding,HNF4A DNA FP,UCH37 inh,Ecoli growth,RanGTP-Impb inh,AF4-AF9 inh
CCCCn1nnnc1SCC(=O)NNC(=O)c1ccco1,-9%,i,3.6,2.8,0.62,-0.6,-1.5
CC1Sc2ccc(S(=O)(=O)NCc3ccccc3)cc2NC1=O (stereo unspecified),29%,i,1.2,1.0,0.66,0.6,-0.2
CCOC(=O)CSc1nnc(CCCCCN2C(=O)c3cccc4cccc(c34)C2=O)o1,9%,i,-5.0,-0.7,0.7,-4.9,2.0
CCOC(=O)N1CCN(C(=O)c2sc3nc(-c4ccc(F)cc4)cn3c2C)CC1,4%,nt,2.8,1.2,0.69,-3.7,nt
COc1ccc(C(=O)c2ccc(Cl)cc2)c(OC)c1OC,-4%,i,0.9,4.9,0.66,nt,0.2
S=c1[nH]nc(COc2ccccc2)n1/N=C/c1ccco1,-11%,i,-0.9,nt,nt,-1.4,-5.9
C/C(CC(=O)Nc1ccccc1C#N)=N\NC(=O)c1ccncc1,nt,i,1.0,nt,nt,5.4,0.3
CCN1C(=O)/C(=C/C2=Cc3ccccc3OC2C)SC1=S (stereo unspecified),6%,i,91*,nt,nt,-9.7,6.9
O=C(Nc1cc(Cl)ccc1N1CCOCC1)c1cccnc1,-9%,i,0.1,5.8,0.71,-1.3,-0.4
COc1ccc(OC)c2c1sc(=NC(=O)C1COc3ccccc3O1)n2C (stereo unspecified),3%,i,1.1,-1.7,0.68,-3.1,0.6
O=C(CSc1nc2c(cnn2-c2ccc(F)cc2)c(=O)[nH]1)N1CCOCC1,13%,nt,-0.9,2.3,0.68,nt,nt
CC(=O)c1sc(NC(C)c2ccccc2)nc1C (stereo unspecified),nt,i,0.3,4.7,0.64,2.5,-0.9
CCOCC(=O)Nc1cc([N+](=O)[O-])ccc1OC,2%,i,2.9,nt,nt,?,-3.4
CCN1CCN(c2cc(C)c3cc(NC(=O)c4ccc5c(c4)OCO5)ccc3n2)CC1,-6%,i,0.8,5.6,0.71,5.4,13
Cc1ccc(S(=O)(=O)N(C)C[C@@H]2OCCCC[C@@H](C)Oc3ccc(NS(=O)(=O)c4c(C)noc4C)cc3C(=O)N([C@H](C)CO)C[C@@H]2C)cc1,0%,i,-0.3,nt,nt,nt,1.7&-1.1
CC1C(=O)N(Cc2cn(Cc3ccco3)nn2)CCS(=O)(=O)N1Cc1ccc(-c2cccnc2)cc1 (stereo unspecified),nt,i,-2.8,nt,nt,nt,-3.0
O=C(c1ccccc1O)N1N=C(C(F)(F)F)CC1(O)c1ccc([N+](=O)[O-])cc1 (stereo unspecified),4%,i,0.6,5.9,0.68,1.4,12
Cc1cc(C)c(S(=O)(=O)N2CCCCCC2)cc1Br,-10%,i,3.2,4.5,0.69,?,-4.7
CC(=O)N(CCc1ccccc1C)Cc1cc2cc3c(cc2[nH]c1=O)OCO3,-1%,nt,-4.1,-25,0.78,0.9,nt
Cc1cc(=O)oc2ccc(OC(=O)CC(C)C)cc12,29%,i,-1.8,-1.0,0.65,?,-2.5
O=S(=O)(Cc1ccc(Cl)cc1)NCc1ccc2c(c1)OCO2,nt,i,7.3,4.6,0.7,4.9,-0.7
Cc1cccc(N2CCN(C(=O)NC(C)c3ccc(F)c(F)c3)CC2)c1C (stereo unspecified),2%,i,-2.4,3.7,0.68,-2.1,0.9
CCN(C(=O)CSc1nnc(-c2ccc(OC)cc2)n1N)c1c(N)n(Cc2ccccc2)c(=O)[nH]c1=O,nt,i,2.6,3.2,0.68,nt,-1.6
CCOC(=O)c1cc2ccccc2n1C1CCN(CCc2ccccc2)CC1,nt,i,1.1,nt,nt,nt,4.2
Cc1cc2c(cc1S(=O)(=O)N1CCCCC1)OCC(=O)N2,nt,i,-0.2,-0.8,0.63,-1.0,-13
Fc1ccc(-c2nnc(NC3=NCCCCC3)o2)cc1,6%,nt,2.3,0.4,0.73,3.4,nt
O=C(CSc1nc2ccsc2c(=O)n1Cc1ccccc1)NCc1ccco1,-10%,nt,0.6,1.6,0.76,-2.8,nt
O=S(=O)(c1cc(Cl)ccc1Cl)N1CCN2CCCC2C1 (stereo unspecified),nt,i,-1.5,3.4,0.67,4.6,2.7
Cc1cccc(NC(=O)CN2C(=O)S/C(=C\C(=O)Nc3ccc(Cl)cc3)C2=O)c1,0%,nt,7.5,4.3,0.67,0.2,nt
Cc1cc(=O)[nH]c(SCC(=O)Nc2ccc3c(c2)OCCO3)n1,nt,i,0.3,1.0,0.68,1.1,-0.4
COC(=O)c1ccccc1NC(=O)c1cc(C)no1,1%,i,0.1,1.9,0.69,2.2,2.3
COc1ccc2cc(C(=O)N3CCN(c4ccccc4F)CC3)[nH]c2c1,-3%,i,2.5,3.3,0.68,3.0,2.0
O=C(NC1CCCN(Cc2ccc(Cl)cc2)C1)c1ccccc1-c1ncc[nH]1 (stereo unspecified),nt,i,7.8,3.4,0.69,-4.8,-4.4
Cc1ccc([C@H]2N[C@]3(CCCN(Cc4cccn4C)C3=O)[C@H]3C(=O)N(Cc4ccccc4)C(=O)[C@@H]23)cc1,nt,i,0.1,nt,nt,nt,5.8
CCOC(=O)N/N=C(C)/C=C/c1ccccc1,26%,i,-2.4,nt,nt,7.3,0.5
Cc1cc(C(=O)NNC2CC(=O)N(c3ccc4ccccc4c3)C2=O)c(C)o1 (stereo unspecified),0%,i,-7.9,1.6,0.67,?,-1.7
COc1ccc(C(=O)NCCc2ccccn2)cc1S(=O)(=O)Nc1ccc(Br)cc1,-13%,i,4.0,4.0,0.62,nt,0.3
Cc1nc(NC(=O)CSc2nnc(-c3ccncc3)n2C)sc1C,nt,i,3.2,3.2,0.68,1.1,-19
O=C(Cn1cnc2c(nnn2Cc2ccc(F)cc2)c1=O)NCc1ccc(F)cc1,-5%,i,-0.9,2.9,0.69,-2.2,-5.4
Cc1cc(OCC(=O)NNC(=S)NC(=O)c2ccc(Br)o2)ccc1Cl,-5%,i,1.6,1.3,0.69,nt,-2.3
NC(=O)c1ccsc1NC(=O)COC(=O)C1CC2CCCC(C1)C2=O (stereo unspecified),-33%,i,2.4,1.9,0.71,3.1,-3.4
COc1ccccc1-c1nc(S(=O)(=O)c2ccc(Cl)cc2)c(N(C)C)o1,?,nt,-0.1,1.7,0.68,5.2,nt
COCc1c(Br)c(C)nc(OCC(=O)N/N=C/c2ccco2)c1C#N,7%,i,-4.9,nt,nt,-2.8,-0.1
O=C(Nc1ccc(Cl)cc1)c1cncs1,-5%,i,0.4,1.2,0.6,0.6,0.4
CCOC(=O)c1c(NC(=O)C2CC(Cl)=CCC2C(=O)O)sc2c1CCCCC2 (stereo unspecified),?,nt,-3.4,-1.2,0.75,-1.1,nt
COc1ccccc1N1CCN(C(=O)CCS(=O)(=O)c2ccc3c(c2)NC(=O)C(C)S3)CC1 (stereo unspecified),nt,i,0.8,-1.3,0.7,-2.7,-1.6
CCN(CC(=O)Nc1ccc(NC(C)=O)cc1)S(=O)(=O)/C=C/c1ccccc1,nt,i,-21,-1.8,0.67,nt,11
COc1cccc(NC(=O)n2ncc3c(C)cccc32)c1,0%,i,4.0,2.6,0.67,-1.1,-6.4
COc1cccc(C=O)c1OCCCOc1cccc2cccnc12,5%,i,-1.1,2.3,0.68,3.3,-0.8
O=C(Nc1ccc(Br)cc1)c1cc2ccccn2n1,?,i,3.0,1.1,0.72,-1.3,-1.2
COc1ccccc1-n1c(=O)[nH]c2c(C(N)=O)nc(-c3cccnc3)nc21,nt,i,-0.1,-31,0.72,4.9,-0.1
